Mtb MbtI inh: MbtI salicylate synthase inhibitors, primary screen, biochemical, fluorescence intensity | purified MbtI enzyme, fluorescence intensity read-out | inhibition, %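 (about 17 µg/mL by stock and volumes)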 | AID 493033, 2011 | hit rate 0.89% among 100,000 | P9WFX0;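 active means above 50% in both replicates, above 80% if mildly self-fluorescent; inactive means the rest, strongly fluorescent compounds included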;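 further: 0% = mean of negative and 100% = mean of positive controls; one replicate is shown; some compounds called inactive have numbers as strong as hits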
Target sequence (P9WFX0 whole entry, looked up): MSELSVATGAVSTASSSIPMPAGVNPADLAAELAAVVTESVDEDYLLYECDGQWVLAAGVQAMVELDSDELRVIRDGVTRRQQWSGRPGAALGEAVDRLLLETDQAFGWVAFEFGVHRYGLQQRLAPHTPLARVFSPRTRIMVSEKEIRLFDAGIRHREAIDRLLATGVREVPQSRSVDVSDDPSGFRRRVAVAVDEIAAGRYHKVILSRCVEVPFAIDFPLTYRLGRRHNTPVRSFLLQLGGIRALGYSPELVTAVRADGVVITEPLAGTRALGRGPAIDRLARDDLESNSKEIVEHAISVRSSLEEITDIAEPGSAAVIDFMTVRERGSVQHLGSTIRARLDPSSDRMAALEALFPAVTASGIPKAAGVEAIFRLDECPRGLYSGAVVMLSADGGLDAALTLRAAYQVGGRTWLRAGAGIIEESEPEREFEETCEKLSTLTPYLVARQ
Polio RdRp inh: poliovirus RdRp elongation inhibitors, primary screen, biochemical, fluorescence polarization, total intensity; Genome polyprotein (Poliovirus type 1 (strain Mahoney)), P03300; poliovirus polymerase elongation; stronger effect = lower value; % elongation, % (compound at 16.7 µg/mL); hit rate 0.66% among 150,000; in the data active means % elongation below about 90%; further: some results filed as inactive read as strong as hits
Target sequence (P03300 1749-2209 limits assumed): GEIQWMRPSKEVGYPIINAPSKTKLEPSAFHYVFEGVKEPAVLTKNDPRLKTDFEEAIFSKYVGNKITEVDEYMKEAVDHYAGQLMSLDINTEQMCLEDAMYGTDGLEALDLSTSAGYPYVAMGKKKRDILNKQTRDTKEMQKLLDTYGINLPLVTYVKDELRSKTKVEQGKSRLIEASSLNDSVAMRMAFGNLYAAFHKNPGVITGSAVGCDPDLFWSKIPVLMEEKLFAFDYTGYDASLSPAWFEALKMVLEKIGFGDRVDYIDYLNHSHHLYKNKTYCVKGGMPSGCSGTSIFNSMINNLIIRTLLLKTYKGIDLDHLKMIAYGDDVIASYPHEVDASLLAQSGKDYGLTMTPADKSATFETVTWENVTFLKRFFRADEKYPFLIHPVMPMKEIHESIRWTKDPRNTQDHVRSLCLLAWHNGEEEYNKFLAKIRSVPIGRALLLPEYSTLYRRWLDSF
MenB inh: M. tuberculosis MenB inhibitors, primary screen, biochemical, absorbance; MenB enzyme assay, absorbance read-out; some hits fall short of the stated cut; inhibition, %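 (about 12 µg/mL by stock and volumes)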; hit rate 0.43% among 100,000; AID 540299, 2011;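 active means mean of two replicates above 30%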;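 further: 0% = no compound and 100% = wells with inactive enzyme; the first replicate is given; strong numbers were not always called active; inactives centre near -10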
Polio RdRp inh intensity: second read-out of Polio RdRp inh, no call of its own (marks repeat the call); % elongation; measured here: total intensity read-out; formula for this scale not given here;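 total fluorescence in place of polarization; lower means less elongation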
Numbers without * were called inactive; . = not tested or not shown.

SMILES	Mtb MbtI inh	Polio RdRp inh	Polio RdRp inh intensity	MenB inh
O=C(Cc1cccc2ccccc12)Nc1ccc(CCC(=O)N2CCCC2)cc1	.	109	109	-23
Cn1c(O)c(C=NCC2(C)CC(O)CC(C)(C)C2)c(=O)n(C)c1=S (configuration not stated)	7	101	109	-6
Cc1ccc(-c2cc(C(=O)NCc3cn(C)nc3C)c3cc(Br)ccc3n2)cc1	13	102	107	-9
CSCCNC(=O)c1ccccc1N	104	102	97	3
CC1CCCC(C)N1Cn1nc2c(Cl)cc(Cl)cn2c1=S (configuration not stated)	52	102	96	-2
CC(C)C(=O)Nc1cccc(-c2nc3ccccc3o2)c1	-31	102	108	-14
CCOC(=O)C1CCN(C(=O)CCc2ccccc2)CC1	-12	102	102	-18
O=C1CSC(c2cccnc2)N1Cc1cccnc1 (configuration not stated)	0	103	106	-10
O=C(O)c1cc(=O)[nH]c(-c2ccccc2)n1	-1	103	101	-26
CCn1c(CNC(=O)c2ccccc2)n[nH]c1=S	17	102	102	-42
COc1nccnc1NS(=O)(=O)c1ccc(NCc2ccccc2O)cc1	2	101	102	-1
O=C(CSc1ncccn1)NCCC1=CCCCC1	-1	103	101	22
O=C(N=C1c2ccccc2CN1c1ccccc1)c1ccncc1	0	100	96	.
CC(Oc1cccc(Cl)c1)C(=O)N1CCN(c2ncccn2)CC1 (configuration not stated)	23	103	103	-15
COc1ccc(CCNC(=O)CSc2nc3cc(OC)c(OC)cc3c3nc(C)nn23)cc1OC	71	101	106	-17
c1ccc(CNC2=NCCC2)cc1	-14	102	105	.
Cc1csc(-n2c(C)ccc2C)n1	13	107	108	-17
Cc1ccc(-n2c(N)c(C(=O)NCc3ccco3)sc2=S)cc1	49	101	102	-43
O=C(N/N=C/c1ccc(N2CCOCC2)cc1)c1ccc(Cl)cc1	-2	116	124	-12
COc1cc2c(c(OC)c1OC)C(c1ccc(N(C)C)cc1)C1=C(CC(C)(C)CC1=O)N2 (configuration not stated)	-7	102	102	12
CCN(CC)c1ccc(N=Cc2cccs2)cc1	.	118	124	-11
O=C(CCc1ccccc1)NNc1c(Cl)cncc1Cl	13	105	103	-13
CCc1ccc(NC(=O)Cn2cc(S(=O)(=O)c3ccccc3)c(=O)c3ccccc32)cc1	13	102	97	-4
COC(=O)NC(C)N1C(=O)C2C3C=CC(C3)C2C1=O (configuration not stated)	-116	103	92	-16
CCOC(=O)c1c(-c2cccs2)csc1NC(=O)COC(=O)c1ccc(-n2cnnn2)cc1	2	102	109	-10
Cc1ccnc(SCC(=O)Nc2cccc(C(F)(F)F)c2)n1	-6	101	104	.
Cc1ccc(C(=O)n2cnnc2N)cc1	-12	100	103	-14
CCOc1ccc(-c2noc(-c3nnn(-c4ccccc4C(F)(F)F)c3N)n2)cc1	8	104	102	-12
O=C(O)CC1C(=O)N2CCNC2=C1C(=O)c1ccccc1 (configuration not stated)	0	102	110	-12
Cc1nnsc1C(=O)n1nccc1-c1cnn(-c2ccccc2)c1C	6	97	98	13
CCc1ccc(C2C(C#N)=C(C)NC3=C2C(=O)CCC3)cc1 (configuration not stated)	105	102	97	4
S=c1[nH]nc(COc2ccc3c(c2)CCCC3)o1	27	97	106	-27
N#Cc1ccc(COC(=O)C2CC3C=CC2C3)cc1 (configuration not stated)	-8	100	102	-14
O=C(CCCn1c(=S)[nH]c2cc3c(cc2c1=O)OCO3)N1CCN(c2ccccc2F)CC1	-3	103	104	15
O=C1C(Sc2ncn[nH]2)=C/C(=N/S(=O)(=O)c2cccs2)c2ccccc21	90	87*	88*	-30
COc1cc(CN2CCC3(CC2)Nc2ccccc2-n2cccc23)cc(OC)c1OC	20	100	102	-14
COC(=O)C1=C(O)/C(=C\c2cccs2)N=C1C	16	101	111	-304
CC(C)COC(=O)Nc1nnc(SCCOc2ccccc2)s1	-3	100	100	-31
CCC(=O)N=c1sc2cc(NC(C)=O)ccc2n1CCOC	4	100	103	13
O=c1c2ccccc2nc2c3ccccc3c(N3CCCCCC3)nn12	2	100	101	-39
CC(C)c1ccc(N2C(=O)C=CC2=O)cc1	101*	100	104	-1
CCC(=O)Nc1cccc(-c2cn3cccnc3n2)c1	110	102	104	-4
CCCCN1C(=O)CN(C2CCCCC2)C(=O)C1c1ccc(OC)c(OC)c1 (configuration not stated)	-13	99	104	-2
CCc1cccc(NC(=O)c2ccc3c(=O)n4c(nc3c2)CCCCC4)c1	4	101	98	7
O=C(NCCC1=CCCCC1)c1ccc2c(Cl)c3c(nc2c1)CCC3	14	103	109	-47
CCn1c(SC(C)C(=O)NC(N)=O)nnc1-c1ccccc1 (configuration not stated)	8	102	99	14
O=C(c1ccccc1)n1cc2c(n1)-c1ccccc1CS2	20	107	105	7
N#Cc1ccc(C(=O)NC2CCCc3ccccc32)cc1 (configuration not stated)	-14	106	114	-12
CCC(C)NC(=O)Nc1ccc(C)c(Cl)c1 (configuration not stated)	.	108	109	-2
Cc1cc(C)n(CCCNC(=O)CSc2nnc(C(F)(F)F)n2C)n1	15	101	94	-13
O=C(Nc1ccc(NC(=S)NC(=O)c2cc3ccccc3o2)cc1)c1ccco1	-1	105	104	-15
Cc1oc(C(C)(C)C)cc1C(=O)Nc1ccc(N(C)C)cc1	11	101	101	6
COc1ccc(CC(=O)OCCOc2ccccc2F)cc1	-5	104	109	.
O=C(CSc1nnc2scc(-c3ccccc3)n12)N1CCCCCC1	-5	101	96	-20
O=C(COc1cccc2ccccc12)N1c2ccccc2CCc2ccccc21	27	102	106	-39
S=C(Nc1cccc(Cl)c1)NC1CCSc2ccc(Cl)cc21 (configuration not stated)	6	101	98	-59
C/C(N)=C(/C#N)C(=O)CSc1n[nH]c(C(C)C)n1	7	101	104	-16
Cc1cc(C)n(CC(O)Cn2c3ccccc3c3ccccc32)c(=O)n1 (configuration not stated)	-9	100	101	-10
COc1cc(S(=O)(=O)N(CCc2ccccc2)Cc2cccs2)ccc1-n1cnnn1	3	103	103	-48
COCc1cc(C)n(CC(N)=O)c(=O)c1C#N	91	104	111	9
The list continues.
SMILES	Mtb MbtI inh	Polio RdRp inh	Polio RdRp inh intensity	MenB inh
CC(C)=CCCC12CCC(CO)(CO1)C(C)C2 (configuration not stated)	-4	101	102	-88
COc1ccccc1NC(=O)CSc1ccccn1	-2	100	103	.
CC(=O)n1cc(/C=c2/sc3nc4c(C)c(C)ccc4n3c2=O)c(-c2ccccc2)n1	.	106	96	12
O=C(Nc1ccccc1)N1CC2CCCN2c2ccccc21 (configuration not stated)	2	100	101	15
Cc1cc2c(SCC(=O)c3cccs3)ncnc2s1	0	103	104	-8
O=C(N/N=C1\CC2CC=CC12)c1ccc(O)cc1 (configuration not stated)	12	105	103	-14
COc1cc(/C=C2\SC(=O)N(CCN)C2=O)ccc1OC(F)F	48	103	100	-20
FC(F)(F)c1ccc(Cn2cnc3ccccc32)cc1	.	98	106	-20
Nc1ccccc1C(=O)NC1CC1	108	103	97	-5
CC(C)NC(=O)Cn1ncc2c3ccccc3n(C)c2c1=O	71	101	102	-11
CN[C@@H]1[C@@H](O[C@H]2O[C@H](CO)[C@@H](N)[C@H](O)[C@H]2O)O[C@H]2C[C@@H](N)[C@H](O[C@H]3[C@H](O)[C@@H](O)[C@H](N)C[C@@H]3N)O[C@@H]2[C@@H]1O	-3	99	99	-13
O=C(CNC(=O)c1cccs1)c1ccc(F)cc1	-5	102	103	-1
Clc1ccc(C2=NNC(c3ccc4c(c3)OCO4)C2)cc1Cl (configuration not stated)	-10	.	.	-16
O=S(=O)(c1ccc(NC2CN3CCC2CC3)nc1)N1CCCC1 (configuration not stated)	16	103	106	1
C/C(Cc1ncn(-c2cc(C)on2)n1)=N\OC(=O)Nc1ccc(Cl)cc1	12	102	103	-15
Cc1ccc(C(=O)NN2C(C)CCCC2C)o1 (configuration not stated)	-1	100	105	1
C(=C\c1ccccc1)/C=N/Nc1nn[nH]n1	10	101	103	-157
O=C(OCN1C(=O)c2ccccc2C1=O)C1CCN(c2ccc(C(F)(F)F)cn2)CC1	-1	102	105	16
CC(NC(=O)CSc1nnc(-c2cccc(F)c2)n1-c1ccccc1)c1ccccc1 (configuration not stated)	.	100	95	-2
CCOC(=O)CC(N)c1cccs1 (configuration not stated)	11	99	102	-17
Cc1cc(C(C)(C)C)cc(C)c1I	-4	101	111	8
O=C(COCc1cc(-c2ccc3c(c2)OCO3)on1)N1CCCC1	15	102	103	-7
O=C(COc1cc(Cl)ccc1Cl)Nc1cccc2nsnc12	-8	105	102	-15
Cc1cc(C)c(C#N)c(SCC(=O)N2c3ccccc3NC(=O)C2(C)C)n1	-2	123	128	-19
Cc1cc(NC(=O)/C=C\c2ccccc2)nc2c1c(=O)oc1ccccc12	3	100	107	3
NC(=O)C1CCN(C(=O)CC2(CC(=O)O)CCCCC2)CC1	-7	108	98	-18
COc1ccccc1C(=O)Nc1ccc2oc(-c3ccc4ccccc4c3)nc2c1	50	103	97	6
CCCCNC(=O)c1ccc(C#N)cc1	0	107	112	3
N#CC1=C(N)OC2=C(CCc3ccccc32)C1c1ccccc1 (configuration not stated)	-56	99	102	-1
CCC(C)NC(=O)c1ccc(/C=C2/Sc3ccccc3NC2=O)cc1 (configuration not stated)	-3	100	103	-44

Rewritten bar-delimited: part of the list above
Compound | Mtb MbtI inh | Polio RdRp inh | Polio RdRp inh intensity | MenB inh
CCCCNC(=O)c1ccc(C#N)cc1 | 0 | 107 | 112 | 3
Cc1cc(NC(=O)/C=C\c2ccccc2)nc2c1c(=O)oc1ccccc12 | 3 | 100 | 107 | 3

(further entries)
SMILES	Mtb MbtI inh	Polio RdRp inh	Polio RdRp inh intensity	MenB inh
NNc1cc(C(F)(F)F)nc2ccccc12	3	101	103	16
C(=N\Nc1nc2ccccc2s1)/c1ccc2ncccc2c1	-25	104	107	-23
Cc1nc2ccccc2n1C(C)c1ccccc1 (configuration not stated)	-10	103	102	-39
COc1ccc(-c2noc(CC(=O)N(C)c3cc(C)ccc3C)n2)cc1	-61	106	99	-33
CN(C(=O)c1cc2nc(-c3ccco3)cc(C(F)(F)F)n2n1)c1ccc(OC(F)(F)F)cc1	.	108	113	-17
O/N=C/c1ccc(OCc2ccccc2)cc1	-6	100	102	-70
CC(=O)Nc1cc(-c2ccc(Cl)cc2)[nH]n1	-5	107	99	-21
CCCC1CCC(C(=O)Nn2cnc3ccccc3c2=O)CC1 (configuration not stated)	-3	99	100	0
CC(=O)Nc1ccc(Cl)cc1-c1nc2ccc(C)cc2[nH]c1=O	-9	101	103	-15
Cc1ccc(S(=O)(=O)NCC(=O)N2CCC(C)CC2)cc1	0	102	108	-10
CCCCN(CC)C(=O)Cn1cnc2onc(-c3ccc(F)cc3)c2c1=O	-18	102	106	-17
O=C(Nc1cccc(C(F)(F)F)c1)c1c(Cl)nc2sccn12	-8	108	122	-23
c1ccc(CN2CN(C3CCCCC3)Cn3c2nc2ccccc23)cc1	-6	98	102	-6
CN(C)S(=O)(=O)c1cccc(CSc2ncnc3c2cnn3-c2ccccc2)c1	84	105	108	-25
CN(Cc1nc2ccccc2c(=O)[nH]1)C(C(=O)NC(N)=O)c1ccccc1 (configuration not stated)	-14	103	99	-26

Shown field by field: part of the list above
Molecule: O=C(Nc1ccccc1)N1CC2CCCN2c2ccccc21 (configuration not stated)
  Mtb MbtI inh: 2
  Polio RdRp inh: 100
  Polio RdRp inh intensity: 101
  MenB inh: 15

Molecule: Cc1cc2c(SCC(=O)c3cccs3)ncnc2s1
  Mtb MbtI inh: 0
  Polio RdRp inh: 103
  Polio RdRp inh intensity: 104
  MenB inh: -8

Molecule: O=C(N/N=C1\CC2CC=CC12)c1ccc(O)cc1 (configuration not stated)
  Mtb MbtI inh: 12
  Polio RdRp inh: 105
  Polio RdRp inh intensity: 103
  MenB inh: -14

Molecule: COc1cc(/C=C2\SC(=O)N(CCN)C2=O)ccc1OC(F)F
  Mtb MbtI inh: 48
  Polio RdRp inh: 103
  Polio RdRp inh intensity: 100
  MenB inh: -20

Whole records, looked up by structure.
`O/N=C/c1ccc(OCc2ccccc2)cc1` in the list: Mtb MbtI inh: -6; Polio RdRp inh: 100; Polio RdRp inh intensity: 102; MenB inh: -70
`Cc1ccc(S(=O)(=O)NCC(=O)N2CCC(C)CC2)cc1` in the list: Mtb MbtI inh: 0; Polio RdRp inh: 102; Polio RdRp inh intensity: 108; MenB inh: -10

Following part
SMILES	Mtb MbtI inh	Polio RdRp inh	Polio RdRp inh intensity	MenB inh
O=C(NCc1ccc2c(c1)OCO2)c1nnc(-c2ccccc2)o1	-3	104	101	-13
CCN(CC)C(=O)/C(=C\c1ccc(OC)c(OC)c1)n1ccccc1=O	19	103	99	-47
CCCNC(=O)C1CC(c2cccc(OC)c2)=NO1 (configuration not stated)	2	103	102	-23
COc1ccc(/C=N/n2c(=O)c(C(C)(C)C)nn3cnnc23)c(OC)c1	.	101	105	-15
CN1C(=O)CC(c2ccccc2)C1=O (configuration not stated)	1	99	101	-18
N=c1ccccn1CC(O)c1ccccc1 (configuration not stated)	85	101	106	-5
CCN(C(=O)/C=C/c1ccccc1)c1nnc(Cn2nnc3ccccc32)s1	2	100	99	9
O=C(NCCCN1CCOCC1)c1cc(-c2ccco2)nc2ccccc12	109	99	97	-31
COc1cccc2sc(N3CCc4ccccc4C3)nc12	8	103	100	-1
